VACV mCherry inh: vaccinia inhibition (mCherry reporter); 0.63% of 310,000 active; AID 720579; Vaccinia virus mCherry reporter infection, fluorescence; about a quarter of the inactives have no number; Potency, µM (top dose mostly 36.5 µM), inactives show top-dose activity change, negative = inhibition, hits mostly inhibitors; active = well fitted inhibition curve with a large enough effect; inconclusive = small, poorly fitted or top-dose-only effect; inactive = no such curve, though single readings can be large or run the other way; tested in A549 cells; note: nearly all actives have a fitted effect of over 35% in size; inactives centre near -10
VACV Venus inh: inhibitors of vaccinia virus (Venus reporter) | Potency, µM (doses to about 36.5 µM), inactives show at the top dose activity change, negative = inhibition, most hits filed as inhibitors | Vaccinia virus Venus reporter expression, fluorescence | 0.46% of 330,000 active; active means well fitted inhibition curve with a large enough effect; inconclusive means small, poorly fitted or top-dose-only effect; inactive means no such curve, though single readings can be large or run the other way; tested in A549 cells; note: nearly all actives have a fitted effect of over 30% in size; inactives centre near -10
* = called active by the depositor; i = inactive; u = inconclusive; x = not tested or not shown; & = joins results of further samples; [ ] = dose if it differs, or a comment. % is set by controls: 0 for no effect and ±100 for the full control effect; potency is the fitted concentration of half-maximal effect.

Molecule,VACV mCherry inh,VACV Venus inh
COc1ccccc1N1CCN(/N=C\c2sccc2C)CC1,u,-8.3%
Cc1cc(-c2cc(-c3ccc(Cl)cc3)nc(N)c2C#N)co1,x,29.2%
COc1ccc(CCNC(=O)c2ccc(C)s2)cc1OC,i,-8.6%
COc1ccc(-c2cc3c(=O)n(CC(=O)Nc4ccccc4C(F)(F)F)ccn3n2)cc1OC,-4.4%,-0.7%
C[C@H](CO)N1C[C@H](C)[C@@H](CN(C)C(=O)Nc2ccc(C(F)(F)F)cc2)Oc2c(NC(=O)CCC(F)(F)F)cccc2C1=O,3.7%,-22.4%
O=C(c1ccc(S(=O)(=O)N2CCCC2)cc1)N1CCCCC1,-14.7%,-0.4%
O=C(NNC(=S)Nc1ccc(F)cc1)[C@H]1C[C@@H]1c1ccccc1,-10.0%,-10.8%
O=C(N/N=C/c1c[nH]c2c1ccc1ccccc12)c1ccc([N+](=O)[O-])cc1,-2.3%,-6.2%
O=C(Nc1ccccc1)c1cc(C2CCCCN2S(=O)(=O)Cc2cccc(C(F)(F)F)c2)on1 (centres undefined),i,-1.1%
CCOC(=O)Nc1ccccc1C(=O)Nc1cc(C)cc(C)c1,-17.3%,-21.6%
COc1ccc(-n2c(-c3ccc(F)cc3)cn3c4c(=O)n(C)c(=O)n(C)c4nc23)cc1,4.7%,2.2%
CC1(C)CC(=O)C=C(c2ccc(-c3cccc(C(N)=O)c3)cc2)C1=O,-14.6%,-9.1%
Cc1cccc(NC(=S)N2CCC(NC(=O)c3cccc(F)c3)CC2)c1,i,-19.1%
Cc1ccc(CC2CC(=O)N(c3ncccn3)C2=O)cc1 (centres undefined),i,-9.8%
CCn1c(O)c(N=NC2=NC(=O)CS2)c2ccccc21,-23.2%,-13.4%
COc1ccc(S(=O)(=O)NC(=O)C2(C)CCN2C(=O)COc2ccc(Cl)cc2)cc1OC (centres undefined),22.5%,2.3%
CN(C)c1ccc(C2CC(=O)C=C(Nc3ccccc3N)C2)cc1 (centres undefined),i,18.6%
CCc1ccc(OCC(=O)NNC(=S)NC(=O)C2CC2)c(Br)c1,u,4.6%
COc1ccc(/C=C\c2onc(C)c2S(=O)(=O)N2CCC(C(=O)Nc3ccc(C)cc3C)CC2)cc1,-10.3%,-8.4%
COc1ccc(/C=N/NC(=S)Nc2c(C)n(C)n(-c3ccccc3)c2=O)cc1OC,i,-2.6%
CSc1nc(C)cc(SCC(=O)Nc2ccc(Cl)cc2Cl)n1,i,-16.2%
CCC(C)N(C(=O)COC(=O)c1ccc(N)c([N+](=O)[O-])c1)C1CCS(=O)(=O)C1 (centres undefined),i,-10.5%
Clc1ccc(OCc2cnc(Cl)s2)cc1,-21.3%,-11.1%
COC(=O)Cc1ccc(OC2(C)CCN(Cc3csc4ccccc34)C2)cc1 (centres undefined),16.1%,-5.6%
Cc1ccc(S(=O)(=O)CC(=O)N(C)C)cc1,x,-21.3%
COc1ccc(-n2ncc3c2ncn2nc(Cc4ccccc4)nc32)cc1,-4.0%,-1.5%
CCSc1nnc(NC(=O)CC)s1,i,-21.9%
O=C1CN(C(=O)CSc2nc3ccccc3n2CCc2ccccc2)c2ccccc2N1,-22.0%,-6.0%
COC(=O)CCN1CCN(S(=O)(=O)c2cccc(Br)c2)CC1,i,-6.1%
COC(=O)c1cc2occc2n1Cc1nc(-c2ccc(Cl)cc2)oc1C,-12.1%,-7.9%&-4.4%
O=C(Nc1ccccc1-c1nnn(CC(=O)N2CCOCC2)n1)c1ccc(F)cc1,i,-19.5%
Cc1cnc(NC(=O)C2(C)CCN2C(=O)C(C)C)s1 (centres undefined),6.0%,9.0%
O=C(Nc1cccc(C(F)(F)F)c1)C(Sc1ncnc2ccccc12)c1ccccc1 (centres undefined),-21.4%,-5.2%
CCCCN(C)CCCNC(=O)CN1C(=O)CSc2ccc(S(=O)(=O)N3CCOCC3)cc21,-10.8%,-29.2%&-12.7%
CCOc1ccc(NC(=O)CS(=O)(=O)Cc2nc(-c3ccc(C)cc3)oc2C)cc1,-25.7%,-22.2%
CCCCCCCCCCCCCCCCCCN(CCCCCCCCCCCCCCCCCC)c1ccc(/C=C/c2ccc(C=O)cc2)cc1,i,-15.2%
O=C(CSc1ccccc1F)NC(=O)c1ccccc1Br,-14.9%,-3.4%
Cc1ccc(Cn2cccc(NC(=O)c3ccco3)c2=O)cc1,-25.4%,-19.7%
O=[N+]([O-])c1cccc(C2Nc3ccccc3CO2)c1 (centres undefined),i,-5.3%
CCN(CC)CCNC(=O)c1c(O)c2cccc3c2n(c1=O)CCC3,i,-21.1%
CCOC(=O)c1cc(-c2ccc(OC)c(S(=O)(=O)N3CCN(c4ccccc4)CC3)c2)on1,-7.0%,-10.3%
O=C(NC1CC(=O)N(c2ccc(F)cc2)C1)C1CC1 (centres undefined),-6.1%,-4.2%
CN(Cc1cccnc1)Cc1cn(C)nc1-c1cccc(Cl)c1,9.4%,-10.6%
Cc1cc(C)n2nc(SCC(=O)Nc3ccccc3F)nc2n1,-13.9%,-9.5%
COc1ccccc1CNC(=O)C1(C)CCN1Cc1ccc2ccccc2c1 (centres undefined),u,-4.9%
COc1ccccc1OCC(=O)Nc1ccc(S(=O)(=O)Nc2nc(C)cc(C)n2)cc1,-10.1%,-4.8%
C=CCOC(=O)c1ccc(-n2cncn2)nc1,-15.0%,-10.2%
COc1ccc2[nH]c(C(=O)NCc3ccc4c(c3)OCO4)cc2c1,-26.8%,-17.0%
CCOC(=O)[C@]12CCCC=C1N(Cc1cccc3ccccc13)C(=O)[C@H](CC(=O)N1CCOCC1)C2,13.3%,-12.3%
O=C(C1COc2ccccc2O1)N1CCN(c2nc3ccc([N+](=O)[O-])cc3s2)CC1 (centres undefined),-12.2%,-4.0%
COc1ccc(Cl)cc1NC(=O)CCS(=O)(=O)c1ccc(Br)cc1,u,u
Cc1ccc(NC(=O)C(=O)NCC(c2cccnc2)N2CCN(C)CC2)cc1F (centres undefined),-4.7%,-8.3%
C[C@@H]1CN([C@H](C)CO)C(=O)c2cc(NC(=O)Nc3ccc(C(F)(F)F)cc3)ccc2O[C@H]1CN(C)S(=O)(=O)c1cccs1,-11.5%,u
Cc1c2cnn(-c3ccccc3)c(=O)c2c(C)n1CCCC(=O)Nc1ccc(F)cc1F,-1.1%,-10.7%
CCCCC[C@H](C)N1C[C@@H](COCc2ccccc2)Oc2cc(N3CC[C@@H](N(C)C)C3)ccc2S1(=O)=O,8.8%,-10.3%
O=C(Nc1ccc(Cl)cc1)N1CCC(CN2CCCC2)CC1,-0.2%,-5.8%
COc1ccccc1N(C)S(=O)(=O)c1ccc(Cl)c(C(=O)N2CCC2)c1,-24.8%,-14.9%
COc1ncnc2c1ncn2CCCNCc1ccc(C)o1,-9.4%,-18.7%
COc1cccc(CNC(=O)c2ccc(F)c(S(=O)(=O)N3CCCCC3)c2)c1,-17.9%,-27.9%
CC(Sc1nnc(C2CC2)n1C)C(=O)Nc1ccc(N2CCOCC2)cc1 (centres undefined),-1.4%,-18.0%

Random excerpt: two entries already listed
Molecule,VACV mCherry inh,VACV Venus inh
CCOC(=O)c1cc(-c2ccc(OC)c(S(=O)(=O)N3CCN(c4ccccc4)CC3)c2)on1,-7.0%,-10.3%
C[C@@H]1CN([C@H](C)CO)C(=O)c2cc(NC(=O)Nc3ccc(C(F)(F)F)cc3)ccc2O[C@H]1CN(C)S(=O)(=O)c1cccs1,-11.5%,u

Next section.
Molecule,VACV mCherry inh,VACV Venus inh
COc1ccc(CN2CCOC2=O)cc1OC,i,-6.1%
CN(C)C(=O)c1ccc(-c2cc3onc(-c4ccccc4)c3c(=O)n2C)cc1,-7.3%,u
COc1ccc(Cn2ccc3nc(C)c(C(=O)NCc4ccc(C)cc4)cc3c2=O)cc1,-14.1%,-10.3%
COc1ccc(NS(=O)(=O)c2ccc3oc4ccccc4c3c2)cn1,i,-23.4%
O=C(Nc1nnc(C2CC2)s1)c1cc(-c2ccccc2)nn1-c1ccccc1,x,-26.1%
COc1ccc(-n2cnnc2SCC(=O)N(C)c2ccccc2)cc1,-10.6%,-3.0%
CC1(C)CN(c2ccc(F)cc2)C1=O,i,-4.7%
O=C(CN1CCCC2CCCCC21)c1ccc(I)cc1 (centres undefined),-9.7%,-6.9%
Cc1ccc(CNC(=O)c2cnc3c(-c4ccc(F)cc4)c(C)nn3c2C)o1,-6.8%,-1.1%
COc1cccc(C2CC(c3ccccc3)=NN2S(=O)(=O)c2ccccc2)c1OC (centres undefined),-7.1%,-0.4%
Cc1ccc(-c2nc3ccc([N+](=O)[O-])cc3[nH]2)cc1,-14.4%,u
CN(C)C(=O)OC1=C(c2ccccc2)Sc2ccccc2-n2cccc21,i,-11.0%
CCOC(=O)c1c(C)[nH]c(C)c1C(=O)COC(=O)c1sccc1C,-25.4%,-13.3%
COc1ccc(S(=O)(=O)N2CCN(Cc3ccc4c(c3)OCO4)CC2)cc1C,-7.2%,-12.7%
COc1cc(SC)ccc1C(=O)Nc1ccc2c(c1)CCN2S(C)(=O)=O,-11.0%,-19.5%
Cc1ccc2c(c1)CN(CCNC(=O)c1n[nH]c3c1CCCC3)CC(C)O2 (centres undefined),-9.7%,-5.7%
Cc1ccc2c(c1)CN(CCNC(=O)c1cc3ccccc3oc1=O)CC(C)O2 (centres undefined),-7.2%,0.6%
COc1ccc2nc(C)[nH]c(=O)c2c1,-27.8%[1.46 µM],-4.4%
COc1ccc(Cl)cc1NC(=O)[C@H]1O[C@@H]2OC(C)(C)O[C@@H]2[C@H]2OC(C)(C)O[C@H]21,-11.1%,-1.9%
O=C(Cc1c[nH]c2ccccc12)Nc1nccs1,u,-13.7%
N#CC1=C(N)Oc2cc(N)ccc2C1c1ccc(F)cc1F (centres undefined),-17.7%,-21.6%
Cc1cccc(NC(=O)/C(=C/c2cccc([N+](=O)[O-])c2)NC(=O)c2cccs2)c1,-22.6%,-22.4%
COc1ccc(NC(=O)COC(=O)C2CC(=O)N(c3ccc(C)cc3)C2)cc1 (centres undefined),-10.6%,4.9%
Cc1nc(SCC(=O)NCC2CCCO2)c2c3c(sc2n1)CCCC3 (centres undefined),i,-18.8%
O=C(NC1CC(=O)N(c2ccccc2)C1)C1CCCC1 (centres undefined),-9.9%[7.34 µM],-1.9%[7.34 µM]
O=C(CC[C@H]1O[C@@H](n2ccc(=O)[nH]c2=O)[C@H](O)[C@@H]1O)N[C@H](Cc1ccccc1)C(=O)NCC1CCCCC1,23.7%,0.1%
O=C(O)c1cccc(-n2c(/C=C/c3cccc([N+](=O)[O-])c3)nc3ccccc3c2=O)c1,i,-10.4%
CC(CC(C#N)(c1ccccc1)c1ccccc1)N1CCCCC1 (centres undefined),-0.2%,-15.5%
CCNC(=S)N1CCC(C(O)(c2ccccc2)c2ccccc2)CC1,i,-12.1%
CC12CCC(CC1=O)C2(C)C (centres undefined),34.9%[activator],-8.1%
CC(=O)c1cc2c(cc1NC(=O)CCn1cccc1)OCO2,x,-2.3%
CSc1ccc(CN2CCC(C)(Oc3cccc(F)c3)C2)cc1 (centres undefined),i,2.4%
OC[C@H]1O[C@@H](c2nc(-c3ccccc3Br)no2)[C@H](O)[C@@H]1O,-14.4%,-13.5%
COc1ccc(NC(=O)CN(C)C(=O)CCCSc2nc3ccccc3[nH]2)cc1,-0.2%,-9.9%
O=C1c2ccccc2[C@@H]2Cc3csc[n+]3[C@H]12,34.8%[activator],2.9%
Cc1ccc(-n2nc3c(c2NC(=O)c2cccs2)CS(=O)(=O)C3)cc1C,i,-8.7%
c1ccc2c(c1)NC(c1ccncc1)n1c-2nc2ccccc21 (centres undefined),u,u
COc1cc(NS(=O)(=O)c2ccc(NC(=O)c3ccc(Cl)cc3Cl)cc2)nc(OC)n1,-13.1%,1.7%
COc1ccc(OC)c(NC(=O)CNC(=O)Cn2ccc3ccccc3c2=O)c1,i,-10.3%
COc1cc(CNC(=O)Nc2nc(C(N)c3ccccc3)cs2)cc(OC)c1OC (centres undefined),21.8%,3.0%
O=C(Nc1c(C(=O)N2CCN(c3ccccc3F)CC2)oc2ccccc12)c1ccccc1F,-10.6%,-0.1%
N#C/C(=C\c1ccncc1)c1nc2ccccc2[nH]1,-12.6%,1.8%
COc1ccc2c(Cl)c(C(=O)NCCc3ccc(S(N)(=O)=O)cc3)sc2c1,i,-4.5%
CC(C)(C)OC(=O)C[C@@H]1C/C=C\C[C@H](CC(=O)NCCO)C(=O)N[C@@H](Cc2ccccc2)COC1=O,i,-3.3%
CCc1ccccc1NC(=S)/N=C(\N)Nc1nc(C)c2cc(C)ccc2n1,u,u
CCOC(=O)c1c(C)[nH]c(NC(=O)Nc2c(C)n(C)n(-c3ccccc3)c2=O)c1C,i,-5.1%
Cc1ccc2c(c1)-c1c(cnn1CC(=O)Nc1ccccc1C#N)CO2,-21.2%,-14.3%
COc1ccc(-c2noc(N3CCC(C(=O)Nc4ccc(OC)cc4OC)CC3)n2)cc1,-1.7%,u

The order is random; 0.82% or so of the library scored in one or more.
